Source: PubChem BioAssay (Johns Hopkins Ion Channel Center)
KCNQ2 enhance: potentiators of rat KCNQ2 potassium channel | AID 2239 | B-score at 10 µM | 310,000 tested, 0.54% active | CHO-K1 KCNQ2, FluxOR thallium flux fluorescence; active compounds read high;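 active means fluorescence ratio B-score at least 3 SD of library B-scores, with initial fluorescence B-score within 3 SD, cut at about 5.3 in these data; same plate scores as AID 2156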;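 further: B-score of peak minus minimum over baseline fluorescence ratio after K+ and Tl+ stimulus; positive B-score means potentiation of KCNQ2 with more thallium influx and brighter signal; only the inactives scoring about 0 or higher are listed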
Target sequence (O88943 whole entry, looked up): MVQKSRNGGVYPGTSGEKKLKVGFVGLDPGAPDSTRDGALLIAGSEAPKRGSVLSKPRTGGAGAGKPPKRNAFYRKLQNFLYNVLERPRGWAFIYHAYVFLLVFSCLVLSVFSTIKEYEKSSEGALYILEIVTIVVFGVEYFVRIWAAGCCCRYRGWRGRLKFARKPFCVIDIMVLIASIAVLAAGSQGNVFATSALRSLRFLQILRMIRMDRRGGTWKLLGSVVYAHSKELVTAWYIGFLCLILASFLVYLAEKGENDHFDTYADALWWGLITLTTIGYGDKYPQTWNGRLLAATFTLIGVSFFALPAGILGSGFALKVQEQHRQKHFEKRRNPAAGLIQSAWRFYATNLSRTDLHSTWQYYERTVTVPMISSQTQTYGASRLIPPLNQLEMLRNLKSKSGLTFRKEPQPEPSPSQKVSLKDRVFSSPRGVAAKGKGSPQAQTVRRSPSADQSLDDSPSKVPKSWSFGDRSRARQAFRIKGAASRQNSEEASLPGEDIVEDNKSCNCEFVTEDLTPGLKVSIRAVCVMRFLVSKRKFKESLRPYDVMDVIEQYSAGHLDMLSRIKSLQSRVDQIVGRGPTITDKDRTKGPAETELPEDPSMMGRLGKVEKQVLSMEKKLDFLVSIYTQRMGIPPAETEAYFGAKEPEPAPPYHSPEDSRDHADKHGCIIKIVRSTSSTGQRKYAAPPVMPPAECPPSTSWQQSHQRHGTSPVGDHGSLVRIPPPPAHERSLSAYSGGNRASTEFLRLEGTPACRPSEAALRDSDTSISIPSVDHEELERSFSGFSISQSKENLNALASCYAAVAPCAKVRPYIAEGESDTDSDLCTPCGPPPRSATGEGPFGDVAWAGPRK
KCNQ2 enhance baseline: also measured in KCNQ2 enhance; calls as there; B-score; compound at 10 µM; measured here: initial fluorescence intensity artifact check;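 brightness before thallium and not channel activity; 0 = typical well and far values either way flag optical interference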
* marks the source's active call; other numbers are inactive results. Some of the compounds tested; rates above refer to the full screens.

molecule | KCNQ2 enhance baseline | KCNQ2 enhance
COc1ccc(/C=C/C(=O)NC(=S)N2CCN(c3ccccn3)CC2)cc1 | 0.32 | 0.09
CSc1ccccc1NC(=O)Cn1ccsc1=N | 1.16 | 0.43
CCOc1cc(C(=O)O/N=C(\N)c2ccc([N+](=O)[O-])cc2)cc(OCC)c1OCC | -0.67 | 1.96
O=[N+]([O-])c1cc(S(=O)(=O)NC2=NCCCCC2)ccc1Cl | -2.73 | 1.23
C=CCc1cccc2cc(C(=O)N(C)C)c(=O)oc12 | -1.94 | 1.21
COc1ccc(CCNC(=O)c2c(C)nn(-c3ccccc3)c2Cl)cc1OC | -0.63 | 0.35
COc1ccc(S(=O)(=O)N2CCN(C)CC2)cc1 | 0.15 | 0.09
CN(C(=O)c1nc(-c2ccccc2)n(-c2ccccc2)n1)C1CCS(=O)(=O)C1 (centres undefined) | -0.11 | 1.24
COCCN(C(=S)Nc1cccc(C)c1C)C(C)c1ccco1 (centres undefined) | 0.44 | 0.95
O=C(/C=C/c1ccccc1)NC1CCSC1=O (centres undefined) | -0.25 | 0.13
CS(=O)(=O)Nn1cnc2ccccc2c1=O | 0.04 | 0.11
COc1ccc2nc(C)cc(N3CCOCC3)c2c1 | 1.54 | 0.86
CC(=O)C1C(c2ccc(Br)cc2)c2c(noc2C)CC1(C)O (centres undefined) | -0.98 | 0.38
CCOC(=O)c1sc(NC(=O)CCN2CCOCC2)c(C(=O)OCC)c1C | 2.09 | 1.22
COc1ccc2ccc(Oc3ncccn3)cc2c1 | -1.19 | 0.49
CC1CCCCN1S(=O)(=O)c1cccc2cccnc12 (centres undefined) | 0.13 | 1.13
Cc1ccc2c(c1)cc(CN(Cc1cccnc1)C(=O)c1ccccc1)c1nnnn12 | -1.19 | 1.62
CCC(CC)C(=O)Nc1ccc(C(=O)Nc2cc(C)on2)cc1 | 0.05 | 1.06
O=C(CSc1nc2cc(Cl)ccc2s1)c1ccco1 | 0.52 | 1.28
Cc1ccc(C)n1-c1cccc(NC(=O)c2ccccc2)c1 | 0.07 | 4.91
CC(C)(C)OC(=O)[C@H](Cc1ccccc1)NC(=O)c1[nH]cnc1C(=O)N[C@@H](Cc1ccccc1)C(=O)OCc1ccccc1 | -0.69 | 0.5
CC(C)NC(=O)c1cc(-c2ccco2)on1 | -0.91 | 0.07
CC1(C)Cc2c(C#N)c(SCCC#N)nc(N3CCOCC3)c2CO1 | -0.04 | 0.95
Cc1ccc(CNS(=O)(=O)c2ccc3c(c2)C(C)(C)C(=O)N3C)cc1 | -0.38 | 0.86
O=C(COC(=O)c1oc2ccccc2c1COc1ccccc1)NCCN1C(=O)CSC1=O | -0.7 | 1.53
Cc1nn(Cc2ccc(Cl)cc2)c2sc(C(=O)O)cc12 | 0.59 | 1.49
CCOC(=O)c1ccc(NC(=O)CN2C(=O)CCC2=O)cc1 | -2.11 | 1.9
CCC1CCCCN1CCCNC(=O)C1CCN(c2nnc(-n3cccc3)s2)CC1 (centres undefined) | 1.61 | 1.28
CCOC(=O)CN(C(=O)CSc1nnc(CNc2ccc(C)cc2C)o1)c1ccccc1 | -0.6 | 0.28
COc1ccc(N(Cc2cc3ccccc3[nH]c2=O)S(C)(=O)=O)cc1 | -0.62 | 0.99
N#Cc1cccc(NC(=O)CNc2cccc(S(=O)(=O)N3CCCC3)c2)c1 | -1.51 | 2.03
CCOC(=O)C1CCN(c2cc(C)nc3ccc(OC)cc23)CC1 | 1.43 | 1
O=C(CSc1nnc2scc(-c3ccc(Cl)cc3)n12)NCc1ccco1 | 1.03 | 1.43
CC(C)Cc1nnc(NS(=O)(=O)Cc2ccccc2)s1 | -0.1 | 0.96
CC(=O)NNc1ncnc2c1cnn2-c1ccc(C)c(C)c1 | -0.18 | 1.38
O=C1c2ccccc2NC(c2ccc(O)cc2)N1Cc1ccco1 (centres undefined) | -0.01 | 0.62
O=C(Cn1c(C(F)(F)F)nc2ccccc21)c1ccc(Cl)cc1 | -0.3 | 1.99
O=C(O)c1ccccc1N=Nc1ccc(O)cc1 | -0.59 | 0.38
O=C(Cn1cc(SCc2ccc(F)cc2)c2ccccc21)N1CCOCC1 | -0.94 | 0.38
CC(C)CC(=O)NC(=S)Nc1ccc(N2CCN(C(=O)c3cccs3)CC2)cc1 | 1.32 | 0.68
COc1ccc(C2=NS(=O)(=O)N(C)C(C(=O)N3CCOCC3)=C2)cc1OC | -0.83 | 0.4
COCCn1c(C)c(C)c2c(NCCc3ccccc3)ncnc21 | 0.15 | 2.76
Cc1cc(=O)oc2c3c(cc(OCC(=O)NCc4ccccn4)c12)OC(C)(C)CC3 | 0.98 | 0.82
COc1c2ccc(C(=O)NCCCCc3ccccc3)cc2nn1C | -0.71 | 1.17
COc1cc(/C=C2\SC(=S)N(N3CCOCC3)C2=O)ccc1O | 0 | 0.91
O=C(Nc1cc(C(F)(F)F)ccc1N1CCOCC1)c1c(F)c(F)c(F)c(F)c1F | 0.86 | 2.07
N#C/C(=N\Nc1ccccc1)C(N)=S | -0.64 | 0.7
CCOc1ccc(CCNC(=O)CCNC(=O)c2ccco2)cc1OCC | 2.46 | 0.02
CCCNC(=O)Cn1sc2nc(C)cc(C)c2c1=O | -1.82 | 1.46
O=C(NC1CCN(C(=O)Nc2ccccc2Cl)CC1)c1ccccc1 | 0.12 | 0.11

Continuation:
molecule | KCNQ2 enhance baseline | KCNQ2 enhance
COC(=O)c1cc(NC(C)=O)ccc1N1CCOCC1 | -0.69 | 0.83
O=C(Nc1ccc(OCC(F)(F)C(F)F)c(C(F)(F)F)c1)c1ccccc1 | -0.24 | 0.92
NNC(=O)c1n[nH]c(=O)c2ccccc12 | 1.2 | 1.5
CN1CCN(CC(O)COc2ccc(Cl)cc2)CC1 (centres undefined) | -1.9 | 0.21
O=C(Nc1ccccc1)C1CC2CCCC(C1)C2=O (centres undefined) | -0.23 | 0.26
CC1Cc2nc(SCC(=O)NCCc3ccccc3)n(C)c(=O)c2S1 (centres undefined) | -0.03 | 1.06
O=c1[nH]cc(S(=O)(=O)Nc2ccc3c(c2)OCO3)c(=O)[nH]1 | -2.1 | 0.06
Cc1cccc2c(N=Nc3ccc(S(=O)(=O)Nc4ccc(Cl)cc4)cc3[N+](=O)[O-])c(O)[nH]c12 | -0.05 | 0.46
CCC(=O)N1CCc2cc(S(=O)(=O)NCCC(=O)NC3CCCCCC3)ccc21 | -0.85 | 0.08
N=c1c(C(=O)NC2CCCCC2)cc2c(=O)n3ccccc3nc2n1CCc1ccccc1 | -0.74 | 1.2
Cc1ccc(/C=N/NC(=O)CSc2nc3nc(C)cc(C)n3n2)cc1 | -0.12 | 0.02
CCOc1ccc(OCCOCCOc2ccccc2Cl)cc1 | -0.13 | 0.29
CC(=O)Nc1ccc(S(=O)(=O)N2CCN(C3CCCCCCC3)CC2)cc1 | -0.06 | 0.81
CCC12CN(S(=O)(=O)c3ccc(C)cc3)CC(CC)(CN(S(=O)(=O)c3ccc(C)cc3)C1)C2=O | 0.47 | 0.25
O=C1C(NS(=O)(=O)c2cccs2)=C(N2CCN(c3cccc(Cl)c3)CC2)C(=O)c2ccccc21 | -1.75 | 0.17
COc1cc(N2Cc3ccccc3C2)ccc1C=O | 0 | 0.12
O=C(N/N=C/c1c[nH]c2ccc(Br)cc12)c1ccn(Cc2ccc(Cl)cc2)n1 | 0.23 | 0.39
O=c1c(Br)c(N2CCCC2)cnn1-c1ccccc1 | 1.12 | 0.37
Cc1noc(C)c1CSCC(=O)N(C)CC(=O)Nc1ccc(Cl)c(Cl)c1 | -1.77 | 3.49
CCc1ccc(/C([O-])=C(/C(=S)NCCN2CCOCC2)[n+]2ccccc2)cc1 | -0.4 | 4.5
CCN(CC)C(=O)CSc1ncnc2c1cnn2Cc1ccccc1 | -0.3 | 0.21
Cn1c(COc2ccc(F)cc2)nnc1SCC(=O)NC1CC1 | 1.98 | 0.81
COc1ccc(C(=O)NCCNC(=O)c2cnccn2)cc1OC | -0.15 | 1.57
N#Cc1cc(C(=O)c2ccccc2OCC(=O)Nc2ccccc2)cn(C2CCCCC2)c1=O | -0.32 | 0.76
O=C(Cn1cnc2c(cnn2-c2ccccc2)c1=O)NCCc1ccccc1 | 2.01 | 0.04

Two records drawn at random from those above:
molecule | KCNQ2 enhance baseline | KCNQ2 enhance
NNC(=O)c1n[nH]c(=O)c2ccccc12 | 1.2 | 1.5
O=C(Nc1ccccc1)C1CC2CCCC(C1)C2=O (centres undefined) | -0.23 | 0.26

Next section.
molecule | KCNQ2 enhance baseline | KCNQ2 enhance
C=CCNC(=O)c1cc2c(=O)n3cccc(C)c3nc2s1 | -1.1 | 0.06
O=c1cc(-c2ccccc2)nc(N2CCCCC2)[nH]1 | 0.68 | 1.09
COc1cccc(C(=O)Nc2cccc(SC)c2)c1 | -0.09 | 1.7
CCCCc1c(C)[nH]c(C(=O)OCC)c1C | 0.27 | 1.25
Cc1ccc(S(=O)(=O)NNC(=O)C2Cc3c(ccc4ccccc34)O2)cc1 (centres undefined) | 0.8 | 0.07
COc1cccc(OCC(=O)Nc2ccccc2C(=O)Nc2ccc(C(=O)O)cc2)c1 | 1.92 | 0.1
O=C(O)c1cccc(Cn2c(Cl)c(/C=N/NC(=O)c3cccc(O)c3)sc2=O)c1 | -1.13 | 0.76
O=C(CN(Cc1ccccc1F)C(=O)Cn1nnc(-c2cccs2)n1)NCC1CCCO1 (centres undefined) | 0.96 | 0.34
c1csc(-c2nc(-c3ccc(-c4ccon4)s3)no2)c1 | -0.48 | 0.03
Cc1cc(NC(=O)c2cccs2)cc(-c2nc3ncccc3o2)c1O | -0.43 | 1.33
CCCCNC(=O)COC(=O)c1cc(C)oc1C | 0.95 | 1.2
CC1CCCCN1C(=O)CSc1nnc(-c2cccnc2)o1 (centres undefined) | -1.07 | 0.31
C=CCOc1c(Br)cc(CNn2c(C)n[nH]c2=S)cc1OCC | 1.3 | 0.06
COCCn1c(COc2cccc(OC)c2)nnc1SCC(=O)N1CCOCC1 | 0.53 | 0.3
O=C(NCCc1ccccc1)c1ccc2c(c1)OCCO2 | -0.13 | 0.01
CC(=O)N(CCN(C(C)=O)c1ccccc1)c1ccccc1 | -0.8 | 0.02
Cc1onc(-c2c(F)cccc2Cl)c1C(=O)Nc1ccccc1N1CCOCC1 | -0.25 | 5.08
CC1CCCN(C(=O)COC(=O)c2cc([N+](=O)[O-])ccc2N2CCOCC2)C1 (centres undefined) | -0.9 | 0.6
COc1ccc(CNc2ncnc3c2[nH]c2ccccc23)cc1 | 0.06 | 1.6
O=C(Nc1cc(Cl)cc(Cl)c1)c1ccc(Cn2c(=O)[nH]c3ccsc3c2=O)cc1 | 1.49 | 0.58
Cc1cc(C)cc(NC(=O)CCOc2ccccc2)c1 | 0.99 | 1.75
CCOC(=O)c1c(C)[nH]c(C(=O)COC(=O)COc2ccccc2C)c1C | 2.14 | 0.64
O=C(CCn1c(=O)[nH]c2ccccc2c1=O)Nc1ccccc1 | -0.14 | 0.11
O=C(NCCN1CCOCC1)/C(=C\c1ccccc1Cl)NC(=O)c1ccccc1 | 0 | 0.44
COc1ccc(CCNC(=O)C(=O)NCc2ccc(C(C)C)cc2)cc1OC | 0.8 | 0.43
CC1CN(C(=S)SCC(=O)c2ccccc2)CC(C)O1 (centres undefined) | -0.83 | 2.12
N#Cc1cc(C(=O)c2ccccc2O)cn(-c2ccc(Cl)cc2)c1=O | 0.15 | 0.95
Nc1nc(NCCOCCO)nc(NCC2CCCO2)c1[N+](=O)[O-] (centres undefined) | 0.01 | 1.81
Cc1ccc(C(=O)C(C)N2C(=O)NC(C)(c3ccccc3)C2=O)cc1 (centres undefined) | -0.05 | 0.76
COc1ccc(C2(O)CCN(C(=O)Cc3cccnc3)CC2)cc1 | 1.06 | 0.47
CC1CCCCN1CC(=O)NC(=O)NCc1ccccc1 (centres undefined) | 0.29 | 1.48
COc1ccc(CCNC(=O)CN2C(=O)NC(C)(c3ccc([N+](=O)[O-])cc3)C2=O)cc1 (centres undefined) | -0.38 | 1.29
Nc1ccccc1C(=O)NCCN1CCNC1=O | 0.68 | 0.62
Cc1cccc(CNC(=O)c2ccccc2NC(=O)C2=CSCCO2)c1 | -1.71 | 0.51
Cc1ccc(NC(=O)NC(=O)CSc2nnnn2C)c(C)c1 | 0.52 | 0.64
O=S(=O)(c1cccs1)n1cnc2ccccc21 | 1.61 | 0.48
Cc1ccsc1/C=N/N=C/c1sccc1C | 0.46 | 0.05
O=C(NCCc1ccccn1)C(F)(F)C(F)(F)C(F)(F)C(F)(F)C(F)(F)C(F)F | 1.03 | 1.73
COC(=O)CC1C(=O)NCCN1C(=O)CSc1nc2ccccc2c(=O)n1CC(C)C (centres undefined) | 0.04 | 0.75
O=C(NCc1ccccc1)C1=C[C@@H](C2CC2)C[C@@H](OCCCCO)O1 | 0.16 | 0.46
O=C(c1ccc(-c2ccccc2)cc1)C1CCCN(C(=O)c2ccncc2)C1 (centres undefined) | -0.06 | 1.46
O=[N+]([O-])c1ccc(C23CC4CC(CC(O)(C4)C2)C3)cc1 | 0.21 | 0.59
CCOC(=O)Nc1ccc2c(c1)N(C(=O)CCN(C)C)c1ccccc1CC2 | 0.42 | 1.36
Cc1ccc2nc3n(c2c1)CCCN3 | 0.7 | 0.6
Cc1ccc(N(CC(=O)N=Nc2c(O)[nH]c3ccccc23)S(C)(=O)=O)c(C)c1 | 0.83 | 0.01

Shown with the structure last: two of the compounds above
KCNQ2 enhance baseline | KCNQ2 enhance | structure
0 | 0.44 | O=C(NCCN1CCOCC1)/C(=C\c1ccccc1Cl)NC(=O)c1ccccc1
0.8 | 0.43 | COc1ccc(CCNC(=O)C(=O)NCc2ccc(C(C)C)cc2)cc1OC

Complete entries from above. Order of screens: KCNQ2 enhance baseline	KCNQ2 enhance
Cc1ccc(C(=O)C(C)N2C(=O)NC(C)(c3ccccc3)C2=O)cc1 (centres undefined) across the screens: -0.05	0.76
Cc1ccc2nc3n(c2c1)CCCN3 across the screens: 0.7	0.6
